RanGTP-Impb inh: inhibitors of RanGTP-importin-beta interaction, primary screen, biochemical, FRET, CFP-Ran, YFP-importin-beta, homogeneous. inhibition, % (no concentration beside the values). AID 2216. cell-free CFP-Ran/YFP-importin-beta FRET ratio. 300,000 compounds, 1.1% hits;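 active = most replicates above 15%; inconclusive = exactly half above 15%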;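 note: 0% = DMSO wells and 100% = Ran loaded with GDP instead of GTP; wells of about 40 µL received 100 nL stock; the first replicate is given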
Vif TR-FRET: HIV-1 Vif–A3G interaction blockers – biochemical, TR-FRET, GST-Vif 1-94, biotin-A3G peptide, dose response retest, primary screen (AID 1117319); inhibition, %; hits with a dose series show IC50 in µM; TR-FRET GST-Vif / biotin-A3G peptide binding; higher % means a stronger effect; test concentration not given here; strong numbers were not always called active; 260,000 compounds, 0.57% hits;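 active = above the screen mean plus three standard deviations and confirmed in dose response; inconclusive = results disagree or hit not tested in dose response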;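 note: Vif residues 1-94 fused to GST binding biotinylated APOBEC3G peptide 110-148; 0% = full assay without inhibitor and 100% = GST in place of GST-Vif; retest series ran down from 100 µM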
Ecoli growth: E. coli growth inhibition; Escherichia coli growth, OD600, 23 h; hits give low values; OD600 absorbance (test concentration not listed); 330,000 compounds, 0.21% hits; AID 1053175;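 active = OD600 absorbance below the run mean of sample wells minus 3.6 SD, in any replicate, cut at about 0.56 in these data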;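 note: stock transfer was 300 nL into about 60 µL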
AF4-AF9 inh: MLL-AF4/AF9 protein interaction inhibition; 350,000 compounds, 0.47% hits; AID 651704; AlphaScreen, biotin-AF4 peptide binding to FLAG-AF9; inhibition, % at 10 µM; P42568;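 active = every replicate reaching a set inhibition limit, whatever the replicate mean, cut at about 25% in these data; inconclusive = mean inhibition reaches that limit but some replicates miss it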;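 note: 0% = plate neutral control median and 100% = total signal loss; the record names both 10 and 1 µM as test concentration; the first replicate is given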
FGF22 binding: binders of recombinant human FGF22 by thermal shift | 340,000 compounds, 1.5% hits | calls only at 9.99 µM | AID 651658 | SYPRO orange fluorescence; percent of sucrose octasulfate shift, DMSO zero;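 active = melting point raised past a set limit in the mean and every replicate; inconclusive = no clear call; three in four hits are not shown here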
Target sequence (Q9HCT0 whole entry, looked up): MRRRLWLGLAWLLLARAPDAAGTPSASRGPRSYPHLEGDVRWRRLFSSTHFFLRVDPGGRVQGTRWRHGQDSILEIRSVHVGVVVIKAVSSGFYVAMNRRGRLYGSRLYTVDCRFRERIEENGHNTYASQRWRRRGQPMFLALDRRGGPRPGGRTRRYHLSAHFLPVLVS
UCH37 inh: human UCH37 deubiquitinating enzyme inhibition; inhibition, % (concentration not given with the values); 330,000 compounds, 0.33% hits; purified proteasome/UCH37, Ub-AMC cleavage fluorescence; AID 588478;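 active = mean of two replicates above 20%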;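 note: 0% = compound-free wells with enzyme and 100% = wells lacking proteasome; stock transfer was 100 nL into about 20 µL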
Target sequence (Q9Y5K5 whole entry, looked up): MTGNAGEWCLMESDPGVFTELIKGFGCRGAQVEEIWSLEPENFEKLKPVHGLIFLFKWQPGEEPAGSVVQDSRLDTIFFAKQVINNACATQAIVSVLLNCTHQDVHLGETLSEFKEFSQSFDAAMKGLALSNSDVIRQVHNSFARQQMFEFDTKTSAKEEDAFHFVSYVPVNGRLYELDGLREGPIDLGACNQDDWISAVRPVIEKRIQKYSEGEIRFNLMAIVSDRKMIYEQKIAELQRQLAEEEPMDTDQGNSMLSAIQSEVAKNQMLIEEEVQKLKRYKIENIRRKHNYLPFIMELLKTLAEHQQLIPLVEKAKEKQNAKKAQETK
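Material: human UCH37 enzyme supplied as purified proteasome complex / Amount: 0.15 nM proteasome as dispensed / Buffer or medium: pH 7.4 Tris-HCl (50 mM) with ovalbumin, ATP-MgCl2, DTT / Times: preincubation 30 min, reaction 25 min, room temperature / Technique: AMC fluorescence from Ub-AMC cleavage, excitation 355 nm, emission 460 nm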
HNF4A DNA FP: change in binding of human HNF4 alpha to DNA; HNF4a-FITC DNA binding, fluorescence polarization, 1 h; 360,000 compounds, 0.3% hits; P41235; activity change, % at 10 µM; in the data active = activity change above about 30%, passing the limit was not always enough;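 note: controls were the assay level and a saturating level of protein; the project sought stronger binding though the title names inhibitors; some compounds called inactive have numbers as strong as hits; positive values seem to mean higher polarization but the record does not say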
Target sequence (P41235 whole entry, looked up): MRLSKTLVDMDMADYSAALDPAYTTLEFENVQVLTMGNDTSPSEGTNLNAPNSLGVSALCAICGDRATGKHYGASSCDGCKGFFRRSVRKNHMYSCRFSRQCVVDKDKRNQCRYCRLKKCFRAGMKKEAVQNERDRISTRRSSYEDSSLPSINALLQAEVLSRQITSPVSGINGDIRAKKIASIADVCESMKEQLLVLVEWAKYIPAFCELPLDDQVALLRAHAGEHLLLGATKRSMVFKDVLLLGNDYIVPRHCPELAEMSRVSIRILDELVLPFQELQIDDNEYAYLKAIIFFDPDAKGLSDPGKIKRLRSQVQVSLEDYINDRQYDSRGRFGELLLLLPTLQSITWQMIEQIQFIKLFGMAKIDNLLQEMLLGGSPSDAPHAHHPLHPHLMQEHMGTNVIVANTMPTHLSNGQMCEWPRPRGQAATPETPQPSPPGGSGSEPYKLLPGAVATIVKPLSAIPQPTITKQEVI
Numbers without * were called inactive; i = inactive; u = inconclusive; x = not tested or not shown; + = active, no number; & = joins results of further samples. Only part of the results is shown (hit frequency here may not be typical).

SMILES	RanGTP-Impb inh	Vif TR-FRET	Ecoli growth	AF4-AF9 inh	FGF22 binding	UCH37 inh	HNF4A DNA FP
COc1cccc(NS(=O)(=O)c2ccc(Br)s2)c1	-3.8	10%	0.6	x	x	0.7	8.0
CN(c1ccccc1)c1nc(N)c([N+](=O)[O-])c(Nc2ccccc2F)n1	-1.4	4%	0.7	-3.6	i	8.3	0.7
O=C(CN1C(=O)CC(c2ccco2)Sc2ccccc21)NC1CCCCC1 (stereo not drawn)	8.4	3%	0.73	-3.7	i	6.9	-3.5
O/N=C1\CC/C(=N\O)c2nn(-c3ccc(Cl)cc3Cl)nc21	3.2	0%	x	-1.8	i	x	1.8
COc1cc(OC)nc(Oc2ccccc2C(=O)Oc2ccccc2Cl)n1	3.2	2%	0.66	4.0	i	1.2	-3.0
Cc1ccc(S(=O)(=O)N(C)CCCC(=O)N2CCN(C=O)CC2)cc1	-0.8	0%	0.74	x	x	1.1	-4.0
CS(=O)(=O)N(CC(=O)Nc1ccccc1-c1ccccc1)c1ccccc1	-0.6	x	0.7	-1.1	i	1.3	1.4
Cc1noc(NS(=O)(=O)c2ccc(NC(=O)CCC3CCCCC3)cc2)c1C	3.2	30%	0.73	x	x	0.9	-1.8
CC(=O)Nc1ccc(NC(=O)c2cc([N+](=O)[O-])cc([N+](=O)[O-])c2)cc1	2.3	-1%	0.7	5.1	i	2.4	2.2
CC1COCC(C)N1C1=C(Cl)C(=O)c2ccccc2C1=O (stereo not drawn)	x	11µM*	x	27*	i	x	-0.8
Cc1ccc(S(=O)(=O)CNC(=S)c2cccc(C)c2)cc1	7.8	25%	0.76	x	x	-1.8	-0.1
CCCN(CCC)c1ncnc2nc[nH]c12	-4.3	2%	0.76	-7.3	i	6.9	-2.1
COc1cc(NC(=O)CN2CCN(c3ccccn3)CC2)cc(OC)c1OC	3.8	x	0.69	0.4	i	0.1	0.2
CCC(C)NC(=O)CSc1n[nH]c(-c2cc(Cl)ccc2OC)n1 (stereo not drawn)	23	-32%	0.69	-0.6	x	-0.3	2.9
Nc1ccn([C@@H]2O[C@H](C(=O)NCCCN3CCCC3=O)[C@@H](O)[C@H]2O)c(=O)n1	x	x	x	-2.8	i	x	-4.2
COc1ccc(CCNC2CC(=O)N(CCc3ccccc3)C2=O)cc1 (stereo not drawn)	3.7	-3%	0.66	x	x	1.2	-4.3
CC(C)(C)OC(=O)N1CCC(NC(=O)c2[nH]cnc2C(=O)Nc2ccccc2)CC1	x	x	0.67	0.0	i	0.7	-2.9
CNC(=O)/C(C#N)=C/c1ccc(-c2ccc(Cl)cc2)o1	-64	-14%	0.65	4.7	+	1.3	-0.3
COC(=O)c1c[nH]n2c(=O)c(Cc3ccc(F)cc3Cl)c(C)nc12	-2.9	64%	0.74	x	x	1.4	1.3
CSCCC(NC(N)=O)C(=O)Nc1ccc(C)cc1 (stereo not drawn)	u	-4%	0.72	0.0	i	2.6	2.7
NC(=O)C1C(=O)c2ccccc2C1(C[N+](=O)[O-])c1ccccc1 (stereo not drawn)	x	5%	0.73	-2.8	i	9.2	2.3
CC(OC(=O)CCCN=C1NS(=O)(=O)c2ccccc21)C(=O)Nc1ccc(F)cc1Cl (stereo not drawn)	0.9	-5%	0.65	4.1	i	-0.2	-0.2
COc1ccc(-c2ccc(Nc3ccc(S(=O)(=O)N4CCCC4)cc3)nn2)cc1OC	6.5	u	0.68	x	x	5.2	5.0
CCCCOCCCNC(=O)C[C@@H]1C[C@@]2(C(=O)OCC)CCCC=C2N(Cc2ccc3c(c2)OCO3)C1=O	x	x	x	0.2	i	x	-1.4
COc1cc(S(=O)(=O)NC2CCCC2)ccc1-n1cnnn1	0.7	11%	0.61	0.7	i	2.2	-3.1
O=C(NCCc1ccccc1F)c1cc(COc2ccc(F)cc2F)on1	x	0%	x	-4.7	i	x	-4.2
CCCCn1c(=O)n(Cc2cccc(F)c2)c(=O)c2c1ncn2Cc1ccco1	0.0	-1%	0.8	x	x	-0.6	-4.0
CC1CCN(C(=O)c2cc(-c3ccccc3O)on2)CC1	2.2	1%	0.63	-13	i	1.2	5.2
S=C(NN=C1C2CC3CC(C2)CC1C3)Nc1ccccc1	-4.4	8%	0.75	x	x	-0.4	-2.6
COc1ccc(NS(=O)(=O)c2cc(NC(=O)C3CCCO3)ccc2N2CCCC2)cc1 (stereo not drawn)	-2.6	13%	0.6	-2.4	x	-9.0	-3.8
CC1CCN(c2c(NCC3CCC(C(=O)N4CCCC(C)C4)CC3)c(=O)c2=O)CC1 (stereo not drawn)	-2.9	-2%	0.78	-6.8	i	8.6	0.5
COc1ccccc1C(CNC(=O)c1ccc(S(=O)(=O)NCc2ccco2)cc1)N(C)C (stereo not drawn)	-0.6	x	0.66	x	x	2.1	-3.3
COc1ccccc1C(=O)Nc1nnc(-c2ccc(F)cc2)o1	7.5	-6%	0.63	3.3	i	2.2	2.5
O=C(COC(=O)CN1C(=O)COc2ccccc21)NC1CCCCC1	-0.5	3%	0.69	-7.4	i	0.2	-2.7
O=[N+]([O-])c1ccc(NCCNc2ccc([N+](=O)[O-])cc2)cc1	x	5%	0.78	-1.8	i	7.8	4.5
CC(=O)Nc1ccc(S(=O)(=O)NNC(=S)NCc2ccco2)cc1	-3.0	x	0.69	-3.4	i	3.6	-0.7
COc1cc(CCCN2C(=S)NC[C@@H]2CCCCN)cc(OC)c1OC	1.7	6%	x	6.1	i	2.9	-0.8
COc1ccc(C2(C(=O)Nc3ccc(S(=O)(=O)Nc4nc(C)cc(C)n4)cc3)CCCC2)cc1OC	-0.2	x	0.66	x	x	0.5	1.8
Cc1cc(NC(=O)CCC(=O)N(c2ccccc2)C(C(=O)NCC2CCCO2)c2cccnc2)no1 (stereo not drawn)	-1.5	-3%	0.74	x	x	-3.4	4.4
CCNC(=O)c1cc(S(=O)(=O)N2CCSCC2)ccc1OC	u	x	0.7	2.9	i	2.7	3.2
CN(C)C(=O)CCc1ccc2c3c([nH]c2c1)[C@]1(CCc2ccccc2)[C@@H](C(=O)N2CCCCC2)C[C@H](CC(=O)NCCc2ccccn2)C(=O)N1CC3	x	-1%	0.68	-0.6	i	1.2	2.3
O=C1COc2ccc(C(=O)COC(=O)c3ccccc3F)cc2N1	x	x	0.69	-1.6	i	-0.2	0.2
COC(=O)c1c(-c2ccc3ccccc3c2)csc1NC(=O)Cc1ccc(OC)c(OC)c1	3.6	-2%	0.79	x	x	3.1	35
Cc1snc(S(=O)(=O)Cc2c(Cl)cccc2Cl)c1C#N	-1.9	3%	0.72	x	x	4.2	2.7
Cc1ccc(S(=O)(=O)NC(C)C(=O)Nc2ccc(C(N)=O)cc2)cc1 (stereo not drawn)	6.2	29%	0.72	x	x	0.9	-1.1
O=C(Cc1cccc(NC(=O)C2CCCN(C(=O)C3CCC3)C2)c1)Nc1cccc(C(=O)N2CCCC2)c1 (stereo not drawn)	x	x	0.7	0.9	i	1.9	-1.8
CCOC(=O)NC(=O)/C(C#N)=C\NNc1ncc(C(F)(F)F)cc1Cl	-0.8	x	0.69	-1.3	x	2.3	-2.5
CCOc1ccc(S(=O)(=O)N2CCC(C(=O)NCc3ccco3)CC2)cc1	u	-2%	0.69	-1.6	i	-0.4	-1.9
CC1Cc2nc(SCC(=O)Nc3nccs3)n(Cc3ccccc3)c(=O)c2S1 (stereo not drawn)	1.0	28%	0.73	0.3	i	2.0	-0.3
CSc1ccccc1NS(=O)(=O)c1ccccc1	2.1	30%	0.65	x	x	1.4	-5.1

3 entries drawn at random from the list so far, as already listed:
SMILES	RanGTP-Impb inh	Vif TR-FRET	Ecoli growth	AF4-AF9 inh	FGF22 binding	UCH37 inh	HNF4A DNA FP
O=[N+]([O-])c1ccc(NCCNc2ccc([N+](=O)[O-])cc2)cc1	x	5%	0.78	-1.8	i	7.8	4.5
COC(=O)c1c[nH]n2c(=O)c(Cc3ccc(F)cc3Cl)c(C)nc12	-2.9	64%	0.74	x	x	1.4	1.3
O/N=C1\CC/C(=N\O)c2nn(-c3ccc(Cl)cc3Cl)nc21	3.2	0%	x	-1.8	i	x	1.8

The listing continues.
SMILES	RanGTP-Impb inh	Vif TR-FRET	Ecoli growth	AF4-AF9 inh	FGF22 binding	UCH37 inh	HNF4A DNA FP
CCN(CCn1cccn1)C(=O)CCc1nnc(-c2ccccc2)o1	5.7	6%	0.69	-2.1	i	0.0	0.0
COc1ccccc1C(=O)NCCC(=O)N1CC(C)OC(C)C1 (stereo not drawn)	x	0%	0.7	-0.6	i	2.3	-0.8
Cc1cc(NS(=O)(=O)Cc2ccccc2)no1	4.3	-2%	0.71	x	x	2.4	0.2
Cc1cccc(-n2ncc(C#N)c2-n2cccc2)c1	0.0	-4%	0.74	x	x	6.0	-1.8
COc1cc(C)c(S(=O)(=O)N2CCN=C2c2ccccc2)cc1C	3.6	u	x	x	x	x	-1.5
COc1cc(C(=O)NCCOc2cccc3cccnc23)cc(OC)c1OC	1.0	23%	0.71	-0.4	i	2.4	-2.7
O=C(/C=C/c1ccc(S(=O)(=O)NCc2ccco2)cc1)NCc1ccccc1Cl	-2.0	x	0.68	3.3	i	-3.2	1.5
Nc1nc(COC(=O)CCC(=O)c2ccc(Cl)cc2)nc(Nc2ccccc2)n1	x	5%	0.66	-22	i	-2.2	6.3
CCc1cccc(NC(=O)Cn2cccc2)c1	-0.5	22%	0.75	x	x	1.9	3.2
Nn1c(=O)c2ccccc2n2c(SCc3ccc(C(F)(F)F)cc3)nnc12	u	-7%	0.72	x	x	0.7	3.4
Cc1cc(S(=O)(=O)NCCc2ccccc2)c(C)s1	4.1	0%	0.7	x	x	2.8	1.0
O=c1cccccc1NCc1ccccc1	0.0	u	0.7	x	x	5.4	-0.9
Nc1c(NCc2ccccc2)c2ccccc2oc1=O	u	25%	0.7	x	x	2.7	3.8
CC(=O)c1cc(C#N)c(Oc2ccc(F)cc2)nc1C	-5.8	2%	0.71	x	x	3.0	1.9
Cc1ccc(CS(=O)(=O)Cc2ccc(C(=O)NC3CCCCCC3)o2)cc1	6.5	x	x	-0.9	i	x	4.0
COc1cc2c(cc1OC)C(COc1cc(C)cc(C)c1)N(C(C)=O)CC2 (stereo not drawn)	-2.0	x	0.65	0.7	i	-1.8	-2.7
O=C1CCC(OCc2ccccc2)CCN1[C@H](CSc1ccccc1)Cc1ccccc1 (stereo partly drawn)	x	x	x	-3.5	i	x	-3.4
O=[N+]([O-])c1cnc(N2CCCCC2)c([N+](=O)[O-])c1	-7.8	-3%	0.7	x	x	7.6	0.1
COc1ccc(NC(C)=O)cc1NC(=O)C1CCN(C(=O)Nc2ccccc2)CC1	u	0%	0.65	-0.5	i	3.7	2.0
Cc1ccc2c(CN3CCN(C(=O)c4ccco4)CC3)cc(=O)oc2c1C	4.1	u	0.66	-1.5	x	4.6	-1.5
Cc1nc2ccc(NC(=O)c3cccc(S(=O)(=O)N4CCOCC4)c3)cc2s1	x	4%	0.63	5.1	i	0.5	6.9
C[C@@H]1CN([C@@H](C)CO)C(=O)CCCn2nncc2CO[C@@H]1CN(C)S(=O)(=O)c1ccc2c(c1)OCCCO2	x	x	x	-0.6&1.0	i	x	1.2
CCOC(=O)[C@]12CCC=C1N(Cc1ccc(Cl)cc1Cl)C(=O)[C@H](CC(=O)NCc1cccs1)C2	x	x	x	0.9	i	x	-2.5
